Bioassay records as filed in PubChem.
RanGTP-Imp inh – inhibitors of RanGTP-importin-beta interaction, primary screen, biochemical, FRET, CFP-Ran, YFP-importin-beta, homogeneous. cell-free CFP-Ran/YFP-importin-beta FRET ratio. inhibition, % (no concentration beside the values). actives 1.1% (n = 300,000). AID 2216;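 active = most replicates above 15%; inconclusive = exactly half above 15%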;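 note: 0% = DMSO wells and 100% = Ran loaded with GDP instead of GTP; wells of about 40 µL received 100 nL stock; the first replicate is given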
LANA-H2A inh – blocks KSHV LANA binding to histone H2A/H2B; Q9QR71; inhibition, % (concentration not given with the values); actives 0.6% (n = 320,000); cell-free LANA-H2A/H2B peptide, fluorescence polarization; in the data active = inhibition mostly above about 10%, no sharp cut-off; inactive = mostly below about 6.7%;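 note: stock transfer was 7.5 nL into about 10 µL; 0% = median of vehicle wells and 100% = median of positive control wells; one replicate is shown; the record names a cut of 25% in any replicate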
Calb FLC – C. albicans growth modulation with fluconazole. actives 0.57% (n = 300,000). growth inhibition, % (test concentration not listed). C. albicans CaCi-2 (fluconazole-resistant clinical isolate) + fluconazole, Alamar Blue growth, 48 h;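 active = most replicates above 75%; inconclusive = exactly half above 75%; inactive = most below 75%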;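 note: all wells also contain fluconazole at 8 µg/ml as a sub-toxic cotreatment; 0% = median of DMSO wells and 100% = median of geldanamycin control wells; wells of about 8 µL received 7.5 nL stock; the first replicate is given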
T cruzi repl – blocks replication of Trypanosoma cruzi | T. cruzi beta-gal in NIH3T3, luminescence, 90 h | actives 1.4% (n = 300,000) | inhibition, % (no concentration beside the values);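 active = mean inhibition across valid replicates above about 55%, limit read from the data; inconclusive = mean below that limit but half or more replicates reach it; inactive = mean below it, under half of replicates reach it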;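 note: signal also drops with host cell toxicity which is not excluded here; 0% = plate median of DMSO wells and 100% = zero luminescence signal; higher percent means less beta-gal luminescence so fewer parasites; stock transfer was 50 nL into about 50 µL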
Beta cell apopt – beta cell apoptosis inhibition; INS-1E cytokine-induced death, ATP luminescence, 48 h; percent of positive-control rescue, neutral wells zero; protection from apoptosis, % (concentration not given with the values); actives 0.8% (n = 300,000);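 active = all replicates at 75% or more, or half of them and the mean; inconclusive = half reach 75% but not the mean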;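 note: 0% = cytokine-treated negative control wells and 100% = positive control rescue; higher means more ATP so stronger rescue from cytokine killing; wells of about 40 µL received 100 nL stock; the first replicate is given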
Vif TR-FRET – HIV-1 Vif–A3G interaction blockers – biochemical, TR-FRET, GST-Vif 1-94, biotin-A3G peptide, dose response retest, primary screen (AID 1117319) | TR-FRET GST-Vif / biotin-A3G peptide binding; higher % means a stronger effect; test concentration not given here; strong numbers were not always called active | one-dose inhibition, %; IC50 in µM for titrated hits | actives 0.57% (n = 260,000);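 active = above the screen mean plus three standard deviations and confirmed in dose response; inconclusive = results disagree or hit not tested in dose response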;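 note: Vif residues 1-94 fused to GST binding biotinylated APOBEC3G peptide 110-148; 0% = full assay without inhibitor and 100% = GST in place of GST-Vif; retest series ran down from 100 µM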
AF4-AF9 inh – MLL-AF4/AF9 protein interaction inhibition. actives 0.47% (n = 350,000). inhibition, % at 10 µM. AlphaScreen, biotin-AF4 peptide binding to FLAG-AF9. P42568;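 active = every replicate reaching a set inhibition limit, whatever the replicate mean, cut at about 25% in these data; inconclusive = mean inhibition reaches that limit but some replicates miss it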;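 note: 0% = plate neutral control median and 100% = total signal loss; the record names both 10 and 1 µM as test concentration; the first replicate is given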
Target sequence (P42568 whole entry, looked up): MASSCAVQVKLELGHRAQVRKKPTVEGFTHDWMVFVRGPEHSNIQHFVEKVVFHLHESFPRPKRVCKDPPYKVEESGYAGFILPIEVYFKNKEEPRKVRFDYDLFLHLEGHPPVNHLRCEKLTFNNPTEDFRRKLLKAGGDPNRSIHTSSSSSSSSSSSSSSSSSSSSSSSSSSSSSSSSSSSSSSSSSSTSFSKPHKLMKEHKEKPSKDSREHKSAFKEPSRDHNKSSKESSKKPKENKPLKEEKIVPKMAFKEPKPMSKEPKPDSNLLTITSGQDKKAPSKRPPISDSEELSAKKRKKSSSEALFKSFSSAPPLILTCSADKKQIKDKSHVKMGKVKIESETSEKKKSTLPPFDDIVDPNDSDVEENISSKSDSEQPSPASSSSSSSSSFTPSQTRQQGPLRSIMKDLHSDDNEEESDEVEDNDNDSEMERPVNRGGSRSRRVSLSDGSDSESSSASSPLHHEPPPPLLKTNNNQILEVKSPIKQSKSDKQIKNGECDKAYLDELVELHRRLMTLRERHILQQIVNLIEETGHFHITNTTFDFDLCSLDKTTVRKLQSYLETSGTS
A1 inh – inhibitors of the anti-apoptotic protein A1, read as caspase activation. actives 0.066% (n = 330,000). MEF A1-2A-BIM cells, Caspase-Glo 3/7 luminescence, 3 h; percent of clofoctol response, vehicle zero. caspase activation, % (no concentration beside the values). AID 2462;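 active = over half of replicate activation scores above 10%, or exactly half above 10 with the replicate mean above 10; inconclusive = replicate mean below 10 yet half the replicates above 10; inactive = over half of replicates below 10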;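 note: wells of about 30 µL received 50 nL stock; many hits fall short of the cut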
Starred values were filed as active, the others as inactive; ? = inconclusive; nt = no result given; & = joins results of further samples.

canonical_smiles | RanGTP-Imp inh | LANA-H2A inh | Calb FLC | T cruzi repl | Beta cell apopt | Vif TR-FRET | AF4-AF9 inh | A1 inh
CCc1nnc(NC(=O)CSc2nc3cc4c(cc3cc2CC)OCCO4)s1 | 0.5 | 4.6 | 4 | -5 | -10 | 0% | nt | -0.5
COC(=O)Nc1ncc(CN2CCc3ccccc3C2)s1 | -3.4 | 2.6 | -32 | -1 | -4 | 10% | 6.1 | 0.0
COc1ccc(NC(=O)CSc2nc3c([nH]c4ccccc43)c(=O)n2C)c(OC)c1 | 1.7 | -4.9 | -1 | -28 | 0 | nt | 0.1 | 0.6
COc1ccc(OCC(=O)NC(=S)N2CCCc3ccccc32)cc1 | -4.7 | 0.6 | -11 | -4 | 1 | 13% | 14 | -0.5
O=C(NCC(=O)N(Cc1cccs1)C(C(=O)NC1CCCCC1)c1cccnc1)c1ccco1 (stereo not drawn) | 5.6 | 2.7 | 9 | -10 | -11 | ? | nt | 1.4
CCOC(=O)c1c(N)nn(C(=O)CC)c1-c1ccccc1 | 4.7 | -2.0 | 2 | -8 | -4 | 13% | nt | -0.4
CCCOC(=O)C1C2C=CC3(CN(c4cccc(Cl)c4)C(=O)C13)O2 (stereo not drawn) | -2.6 | -4.5 | 3 | 2 | -10 | -4% | -0.9 | -0.1
O=C(Nc1cccnc1Cl)C1c2ccccc2Oc2ccccc21 | 2.0 | 2.3 | 3 | 3 | -3 | 25% | nt | 0.7
CN(C)C(=O)CSc1n[nH]c(=O)[nH]c1=O | ? | 1.2 | ? | -5 | -5 | 20% | 0.6 | 0.4
Cc1ccc(N=C2CCCCCN2C)c(C#N)c1 | 6.8 | -6.9 | -9 | -6 | nt | 4% | nt | -0.2
O=C(CN1CCCCCC1)Nc1ccccc1OC(F)F | 0.7 | 4.2 | -2 | -5 | 0 | nt | 0.8 | 0.4
Cc1cc2cc(C)c3nnc(SCC(=O)N4CCN(C(=O)c5ccco5)CC4)n3c2cc1C | -4.8 | 2.3 | -30 | 31 | 9 | nt | -1.1 | -0.1
C=C(C)CSc1nc2ncc(Cl)cc2[nH]1 | -0.1 | -1.3 | -4 | 10 | nt | 4% | nt | 0.2
O=C(c1ccc(Br)cc1)c1cn[nH]c1-c1ccccc1O | 1.0 | 1.6 | 6 | 9 | -17 | nt | 1.1 | -1.0
CCC(Sc1nncn1C)C(=O)Nc1cc(C)on1 (stereo not drawn) | ? | -4.6 | -6 | -1 | -4 | 4% | -8.1 | 1.2
COc1ccc(N2CC(NC(=O)N3CCc4ccccc43)CC2=O)cc1OC (stereo not drawn) | -3.0 | -7.3 | -4 | -1 | -1 | -3% | -26 | -0.8
COC(=O)c1cc(Br)c(=O)n(-c2cccc(F)c2)c1 | -1.6 | -0.2 | 7 | -12 | 0 | -2% | nt | 0.2
O=S(=O)(NCCN1CCCC1)c1ccc(Cl)cc1 | 4.0 | 4.8 | 1 | 2 | nt | 7% | 0.2 | 0.6
COc1ccc(NC(=O)CCc2c(C)nc3nc(C)nn3c2C)cc1 | ? | 4.6 | 2 | -6 | -2 | 1% | nt | 0.6
CN(C)S(=O)(=O)c1cccc(C(=O)Nc2ccc3c(c2)CCC3)c1 | 1.9 | -1.0 | -1 | 9 | -4 | 5% | 1.2 | -0.4

Carrying on:
canonical_smiles | RanGTP-Imp inh | LANA-H2A inh | Calb FLC | T cruzi repl | Beta cell apopt | Vif TR-FRET | AF4-AF9 inh | A1 inh
Cc1cc(C)nc(N/N=C/C2=C(N3CCOCC3)C(=C\c3ccc(Cl)cc3)/CC2)n1 | 1.7 | 8.9 | -29 | -19 | -2 | 13µM* | nt | 0.1
Cc1nc(CNS(=O)(=O)c2ccccc2F)cs1 | 10 | 4.2 | -5 | -16 | -6 | nt | -8.0 | -0.1
Cc1cc(C=C2C(=O)c3ccccc3C2=O)c(C)n1C | 4.1 | 2.7 | 8 | -6 | -6 | nt | nt | 0.4
Cc1ccc(N(CC(O)Cn2nc(C)cc2C)S(=O)(=O)c2ccc3ccccc3c2)cc1 (stereo not drawn) | 4.2 | -3.2 | -23 | 22 | 8 | -10% | -53 | 2.0
CN(C)S(=O)(=O)c1ccc(Cl)c(C(=O)NC2CCCCCCC2)c1 | -0.2 | -0.9 | 1 | -6 | -3 | nt | 5.7 | 0.5
Cc1ccc(C(=O)Nc2cc3[nH]c(=O)oc3cc2C)cc1 | -2.3 | -1.1 | -3 | -8 | -16 | -1% | -0.7 | 1.2
COCC(=O)N(Cc1cc2ccc(C)cc2[nH]c1=O)c1ccccc1C | -1.7 | 3.9 | -5 | -4 | -2 | nt | -3.0 | -0.8
CC(=O)c1c(C)[nH]c(=S)c(C#N)c1-c1ccc(Cl)cc1 | 0.9 | 5.8 | 1 | 0 | -3 | nt | nt | 0.1
Cc1ccc2c(c1)[C@@H]1CN(C)CC[C@@H]1N2S(=O)(=O)c1ccc(F)cc1 | -1.1 | -0.3 | 8 | -9 | -4 | -2% | nt | 1.2
O=C1CCC(C(=O)N(CCO)Cc2ccccc2)CN1CCCN1CCOCC1 (stereo not drawn) | 1.5 | 6.0 | -3 | -11 | -4 | nt | -1.3 | -0.7
Cc1cccc(NC(=O)CN2CCSc3ccccc32)c1 | -3.0 | 0.0 | -3 | -10 | 3 | -3% | -0.4 | 0.6
CN(C1CCS(=O)(=O)C1)S(=O)(=O)c1ccc2ccccc2c1 (stereo not drawn) | -2.3 | -1.0 | 1 | -4 | nt | 5% | -0.4 | -0.5
CCOC(=O)N1CCN(c2c(NCCCN3CCCC(C)C3)c(=O)c2=O)CC1 (stereo not drawn) | ? | -1.8 | -5 | -2 | -3 | 4% | 3.7 | -0.1
Oc1cccc2cnccc12 | -6.9 | 0.3 | -1 | -1 | -13 | 2% | -14 | -0.8
O=C(c1ccc(F)cc1)N1CCOC(c2nc(-c3ccc(F)cc3)no2)C1 (stereo not drawn) | nt | -1.6 | nt | nt | -3 | nt | 2.4 | 0.3
O=c1ccn(-c2cccc(C(F)(F)F)c2)nc1-c1ccn(-c2cccc(Cl)c2)n1 | -2.1 | -1.4 | -3 | 23 | 3 | -7% | nt | 0.9
CN1CCc2ccccc2C1Cc1ccccc1NC(=O)c1sc2ccccc2c1Cl (stereo not drawn) | 1.4 | -4.0 | -4 | 55* | nt | -13% | 6.6 | 0.7
COc1ccccc1CN1CC(C(=O)N(C)Cc2nc(C)cs2)CCC1=O (stereo not drawn) | -1.4 | nt | -14 | -14 | nt | nt | 3.1 | nt
COc1n[nH]c(C(=O)NCc2ccccc2)c1[N+](=O)[O-] | 7.9 | -2.4 | -14 | 3 | -2 | 2% | -2.6 | 0.2
Nc1cccnc1S(=O)(=O)c1cccc(C(F)(F)F)c1 | ? | 4.9 | 1 | -6 | -5 | nt | nt | 0.0

Going on with the list:
canonical_smiles | RanGTP-Imp inh | LANA-H2A inh | Calb FLC | T cruzi repl | Beta cell apopt | Vif TR-FRET | AF4-AF9 inh | A1 inh
COC(=O)c1cccc(C(=O)N2CCCC(Nc3ccc(C)c(C)c3)C2)c1 (stereo not drawn) | -2.0 | -6.4 | 6 | -5 | -4 | 14% | 2.3 | -1.2
CCOC(=O)c1sc(Nc2cccc(C)c2C)nc1C | -0.6 | 0.6 | 0 | 16 | 5 | -10% | nt | 0.5
Cc1cc[n+](Cc2ccccc2)c(N)c1 | 1.8 | -0.1 | -1 | -5 | -13 | nt | nt | 0.3
O=S(=O)(c1ccc(Br)s1)N1CCCCC1 | ? | 3.9 | -18 | -13 | -4 | 63% | nt | 0.7
Cc1cc(-c2ccccc2)nc(N(C)NC(=O)c2c(F)cccc2F)c1S(C)(=O)=O | -0.6 | -1.1 | -15 | 7 | -7 | 0% | nt | 0.1
CCC(NC(=O)COc1cc2c(c3oc(=O)c(C)c(C)c13)CCC(C)(C)O2)C(=O)O (stereo not drawn) | -0.8 | 2.4 | -1 | -2 | -1 | -4% | 2.3 | -0.6
CCC1(c2ccc(F)cc2)NC(=O)N(CC(=O)Nc2ccc(C)c(S(=O)(=O)N3CCOCC3)c2)C1=O (stereo not drawn) | 0.9 | -2.3 | -4 | 7 | -6 | 2% | 0.6 | 1.0
Cc1cc(C)n(-c2cc(C(C)(C)C)nc3c(-c4ccccc4)cnn23)n1 | 2.8 | -9.4 | 10 | nt | 7 | -2% | 16 | -0.4
O=C(OCCOc1ccc(Br)cc1)c1ccc(Cl)nc1 | -4.7 | -1.1 | 110* | 11 | -11 | 4% | -2.0 | -0.6
CC(C)CN(C(=O)CN1CCN(c2ccccc2F)CC1)c1c(N)n(CC(C)C)c(=O)[nH]c1=O | 2.0 | -0.5 | -9 | 3 | -5 | -3% | nt | 0.3
Cc1c(C(=O)NCC(c2ccco2)N2CCCC2)oc2ccc(Cl)cc12 (stereo not drawn) | -3.5 | -1.2 | nt | 14 | -4 | nt | 13 | -0.1
CCn1cc(C(=O)N2CCCCC2)c(=O)c2cc(S(=O)(=O)N3CCC(C)CC3)ccc21 | -0.4 | -2.6 | 8 | 3 | 3 | -3%&-1% | nt | 1.5
CC(C)(C)NS(=O)(=O)c1ccc(Oc2ncc(C(F)(F)F)cc2Cl)cc1 | -0.7 | -4.3 | -2 | 11 | 3 | -6% | nt | 0.5
O=[N+]([O-])c1ccc2c(c1)nc1n2CCN(c2ccccc2)C1 | -2.1 | -3.4 | 0 | 38 | -5 | ? | 7.4 | 0.0
O=C1N/C(=N/N=C/c2ccccc2)SC1(c1ccccc1)c1ccccc1 | -1.9 | 5.1 | -14 | -13 | -11 | 3% | 2.3 | 0.2
COc1ccccc1N(C)S(=O)(=O)c1ccc(C(=O)OCC(=O)N2CCCCCC2)cc1 | 0.1 | 1.9 | -17 | 0 | -4 | -1% | -0.5 | -0.1
CN(C)/C=C(\C=O)c1c(Cl)cccc1Cl | -3.2 | -0.3 | -31 | 4 | -12 | 1% | -1.4 | -0.1
O=C(NCCc1ccccc1)Nc1ccc2c(c1)OCO2 | -0.7 | 0.3 | -31 | 23 | -2 | nt | 1.9 | -5.6
COc1ccc2c(c1OC)C(=O)OC2N1C(=O)CC[C@H]1C(=O)Nc1ccc(F)cc1F (stereo partly drawn) | -2.0 | -3.0 | 0 | -18 | -7 | nt | -4.2 | 0.1
O=C1CCc2cc(S(=O)(=O)NC(Cc3ccccc3)C(=O)N3CCN(c4ccccn4)CC3)ccc2N1 (stereo not drawn) | -0.3 | 3.7 | -5 | -4 | 4 | 4% | 0.1 | -0.5

An excerpt from above in order of SMILES length, ascending.
canonical_smiles | RanGTP-Imp inh | LANA-H2A inh | Calb FLC | T cruzi repl | Beta cell apopt | Vif TR-FRET | AF4-AF9 inh | A1 inh
O=C1N/C(=N/N=C/c2ccccc2)SC1(c1ccccc1)c1ccccc1 | -1.9 | 5.1 | -14 | -13 | -11 | 3% | 2.3 | 0.2
CC(C)(C)NS(=O)(=O)c1ccc(Oc2ncc(C(F)(F)F)cc2Cl)cc1 | -0.7 | -4.3 | -2 | 11 | 3 | -6% | nt | 0.5
O=c1ccn(-c2cccc(C(F)(F)F)c2)nc1-c1ccn(-c2cccc(Cl)c2)n1 | -2.1 | -1.4 | -3 | 23 | 3 | -7% | nt | 0.9
